Mtb hypoxia inh: PubChem AID 1159583; M. tuberculosis hypoxia-regulated fluorescent reporter, fluorescence; fluorescence inhibition, % (concentration not given with the values); 300,000 tested, 0.1% active;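 active = 35 to 45% if threefold the growth effect, above 45% if 1.5-fold the growth effect; inactive = the rest, general growth blockers included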;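 note: wells of about 50 µL received 100 nL stock; 0% = vehicle wells and 100% = reference inhibitor wells; whole bacteria with a GFP reporter of the hypoxia response; strong numbers were not always called active; many hits fall short of the cut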
Sa RN4220 lethal: growth inhibition of S. aureus RN4220, primary screen, OD600; 330,000 tested, 0.33% active; 16 h; AID 1259311, 2017; inhibition, % (test concentration not listed);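 active = z-score of -3 or lower and OD600 up to 0.18 on both plates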;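 note: plate controls were untreated cells for no effect and reference antibiotic for full effect; stock transfer was 100 nL into about 80 µL; one replicate is shown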
PrP UTR inh: inhibition of PrP 5' UTR reporter expression | cell-based PrP 5' UTR mRNA reporter, plate reader | AID 488862, 2010 | inhibition, % (concentration not given with the values) | 340,000 tested, 0.35% active;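 active = every replicate at 50% or more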;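 note: 0 = median of the neutral control wells; tested in H4 reporter cells; numbers are from one replicate; inactives centre near -14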
Bead autofluor: compound fluorescence in toxin protease inhibitor counterscreen | compound autofluorescence counterscreen, microsphere flow cytometry; active compounds read high | fluorescence intensity (concentration not given with the values) | 360,000 tested, 3.1% active | AID 624483;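 active = at least 3 SD above the mean of all compounds, about 16000 in these data; inconclusive = too few beads counted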;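 note: 100 nL of 1 mM stock went into each well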
BJeLR viability: MLPCN primary cell-based screen for lethality selective to Ras in HRASV12 cells. 300,000 tested, 0.17% active. BJeLR (HRASV12) viability, CellTiter-Glo ATP luminescence, 48 h; reference of the scale not given here. inhibition, % (concentration not given with the values). AID 1554, 2009;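 active = replicate mean above 50%; inconclusive = above 50% but judged a plate artefact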;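 note: 50 nL library stock added to about 25 µL; numbers are from one replicate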
ugtP null kill: growth inhibition of ugtP-null S. aureus, primary screen, RN4220 ugtP deletion, OD600. AID 1259309, 2017. growth inhibition, % (no concentration beside the values). 16 h; some inactives read as strong as hits. 330,000 tested, 0.54% active;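 active = z-score under -3 and OD600 up to 0.15 on both plates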;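 note: plate controls were untreated wells for no effect and antibiotic for full effect; wells of about 80 µL received 100 nL stock; the first replicate is given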
Mtb hypoxia inh growth: second read-out of Mtb hypoxia inh, no call of its own (marks repeat the call); growth inhibition, %; measured here: M. tuberculosis growth (absorbance);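 0% = vehicle and 100% = reference antibiotic; read after six days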
* hit, by the source's call; ? = inconclusive; . = no result given.

mol,Mtb hypoxia inh,Mtb hypoxia inh growth,Sa RN4220 lethal,PrP UTR inh,Bead autofluor,BJeLR viability,ugtP null kill
Cc1cc(-c2n[nH]c(=S)n2/N=C/c2ccc(C)s2)n[nH]1,.,.,.,-31,2088,4,.
CC(=O)c1c(O)cc(O)c(C(C)=O)c1O,.,.,86*,-13,5670,6,89*
O=C(CCCSc1nnnn1-c1cccc2ccccc12)c1ccc(F)cc1,.,.,13,-41,3858,5,3
CC(=O)Oc1ccc(-c2cccc(C(=O)N(C)c3ccc(O)cc3)c2)cc1,6,7,4.9,-11,4649,-3,-5
Cc1c(Cc2ccccc2)sc(/N=C/c2c(O)ccc3ccccc23)c1C(N)=O,.,.,.,-20,8990,5,.
CC(NC(=O)c1ccccc1)C(=O)NC1=NCCS1 (configuration not stated),1,14,7.9,-27,9091,14,4
Cc1ccc2cc(C=NNC(=O)CN3CCOCC3)c(Cl)nc2c1,1,6,12,.,.,.,5
O=C(OCCNC(=O)c1ccc2ccccc2n1)c1ccc(F)cc1,1,8,8.6,19,16884*,-1,4
NC(=O)C1CCN(CC(=O)Nc2ccccc2C(=O)NC2CC2)CC1,26,10,3.9,-14,3958,.,3
Cc1ccc(NC(=O)c2c(F)cccc2Cl)cc1S(=O)(=O)N1CCOCC1,4,1,5.5,.,6936,.,5
Cc1ccc(NC(=O)c2ccc(Cl)c(S(=O)(=O)N3CCCCC3)c2)nc1,10,6,4.8,-22,4077,.,5
O=C(Cc1ccc(N2CCNC2=O)cc1)N1CCCC(Nc2ccc(F)c(F)c2)C1 (configuration not stated),-1,2,-2.3,-26,4832,40,2
CCC(C)C(NC(=O)C1CCC(C)CC1)C(=O)NCc1ccccn1 (configuration not stated),0,0,1.5,-27,6797,1,3
Cc1cc(C)c2c(CC(=O)N(CCC#N)Cc3cccnc3)coc2c1,.,.,3.4,22,2477,-1,5
O=C(CN1CCC(C(=O)c2ccc(F)cc2)CC1)Nc1ccc(F)cc1,6,-4,-0.9,-18,8496,-8,-7
CCCn1c(O)c(N=NC(=O)CNC(=O)c2ccncc2)c2ccccc21,15,7,2.9,-20,4310,-8,5
COc1cc(C(=O)N2CCN(c3ncnc4sc(C)c(C)c34)CC2)cc(OC)c1OC,16,3,-1.1,-20,9843,13,4
COC(=O)c1ccc(NC(=O)C[n+]2ccccc2)cc1,5,0,3.5,-16,3432,5,9
CC(=O)N(CC1CCCO1)c1nnc(-c2ccccn2)s1 (configuration not stated),0,5,-2.0,-33,3815,2,1
COc1ccc(OC(C)C(=O)N(C)Cc2nc(-c3ccc(OC)cc3)no2)cc1 (configuration not stated),-1,3,0.0,-9,6348,-12,11

The results go on:
mol,Mtb hypoxia inh,Mtb hypoxia inh growth,Sa RN4220 lethal,PrP UTR inh,Bead autofluor,BJeLR viability,ugtP null kill
O=C(NCCc1ccco1)C(=O)NCC1OCCCN1S(=O)(=O)c1cc(F)ccc1F (configuration not stated),7,6,-0.5,-11,5436,-9,-1
CCOc1ccc(C(=O)NN=Cc2ccc(-c3ccc(S(=O)(=O)Nc4ncccn4)cc3)o2)cc1,16,17,2.4,.,.,.,-2
CC(C)CCN1NC2(CCC(C)CC2)NC1=S (configuration not stated),-14,-4,4.3,-7,3834,3,2
O=C(Nc1ccccc1C(=O)N1CCCCC1)c1cc(F)c(F)cc1Cl,-4,-1,-1.0,-2,?,3,3
COCCn1c(=NC(=O)C(C)(C)C)sc2cc([N+](=O)[O-])ccc21,12,8,3.8,-45,2373,0,8
CCOc1ccc2nc(NCCO)[nH]c2c1,.,.,-0.2,-1,2788,6,1
Cc1ccnc(NC(=O)CNC(=O)c2sc3ccccc3c2Cl)c1,.,.,.,-49,5819,8,.
COc1cccc(NC(=O)CCS(=O)(=O)c2ccc3c(c2)oc(=O)n3C)c1,5,-6,4.5,-19,4388,1,10
Cc1ccc(NC(=O)CNS(=O)(=O)c2ccc(F)cc2)cc1C,5,5,1.5,-13,3164,6,7
N=C1/C(=C\c2ccc(-c3ccc(C(=O)O)cc3)o2)C(=O)N=C2SC=C(c3ccccc3)N12,3,7,-4.5,-20,3549,-1,8
CCc1ccc2nc3nc(C)cc(C)c3c(N)c2c1,-2,0,5.0,-15,5062,-12,7
O=C(NN=C1c2ccccc2-c2ccccc21)c1ccccc1,4,-4,4.3,-17,3569,4,-3
c1csc(C2=Nn3c(nnc3-c3ccncc3)SC2)c1,13,7,-7.1,24,3270,7,-9
CC(/C=N\NC(=O)c1ccc(C)nc1)=C\c1ccccc1,.,.,.,-20,2455,-1,.
CCc1ccc(CN2CCCC(CNC(=O)c3cc(OC)cc(OC)c3)C2)cc1 (configuration not stated),16,9,0.5,-26,4401,1,2
Cc1csc(=Nc2ccccc2)n1C,19,2,9.9,-23,2096,9,-7
COc1cccc(C=NNS(=O)(=O)c2ccccc2)c1OC,-8,-5,3.4,.,.,.,6
Cc1ccc2[nH]c3c(=O)n(CC(=O)NCCCN4CCN(c5ccc(F)cc5)CC4)ncc3c2c1,-1,-1,5.3,-1,4298,9,-1
O=C(CNC(=S)NC(=O)c1ccc(Cl)cc1)c1ccccc1,1,10,5.9,-28,6570,2,1
C=CCOc1ccc(/C=N/NC(=O)CC(=O)NC2CCCCC2)cc1,.,.,.,-17,3818,-7,.

Next part:
mol,Mtb hypoxia inh,Mtb hypoxia inh growth,Sa RN4220 lethal,PrP UTR inh,Bead autofluor,BJeLR viability,ugtP null kill
Cc1cccc(C)c1OCC(=O)Nc1ccccc1N1CCCCC1,4,-2,-5.6,-13,5213,-13,6
CCc1cccc2c(C(=O)CN3C(=O)C(=O)N(C4CCCC4)C3=O)c[nH]c12,-4,4,-2.2,-21,8676,.,-12
CC(C)(C)C(=O)N1CCC(O)(CS(=O)(=O)Cc2ccccc2)CC1,2,11,14,4,5117,6,-58
CCCCSc1nnc(-c2cc3c(C(F)(F)F)nn(C)c3s2)n1C,2,10,-5.5,-11,3425,0,-8
CCCc1n(CC(O)COC2CCCCC2)c2ccccc2[n+]1C (configuration not stated),-3,8,-5.8,-18,4119,11,-5
COc1ccc(OC)c(S(=O)(=O)Nc2cc3c4c(c2)C(C)C(=O)N4CCC3)c1 (configuration not stated),0,-3,3.7,-39,5921,9,7
CCC(C)Sc1nnc(NC(=O)C2CCN(C(=O)c3ccco3)CC2)s1 (configuration not stated),12,0,3.9,-4,2743,9,11
Cc1ccc2nc(Cl)c(C3CC(c4cccs4)=NN3C(=O)CCC(=O)O)cc2c1 (configuration not stated),-5,0,8.5,-15,2775,-6,-6
O=C(NN=Cc1cccn1-c1cccc(C(=O)O)c1)Nc1ccccc1,7,-5,5.4,.,.,.,-3
CCCC(CN1CCCC1CN1C(N)=NCC1Cc1ccccc1)N1CC(C(C)CC)N(CCc2ccc(Cl)c(Cl)c2)C1=N (configuration not stated),.,.,101*,.,.,.,100*
CCc1ccc(-c2nc(CS(=O)CC(=O)NC3CC3)c(C)o2)cc1 (configuration not stated),3,-6,-1.7,-38,5850,-8,9
CNC(=O)C1C2C=CC3(O2)C1C(=O)N(CCOC)C3C(=O)NCc1ccc(OC)cc1 (configuration not stated),.,.,1.2,-16,4102,-2,-3
CCOC(=O)c1[nH]c2ccccc2c1NC(=O)C1CCCCC1,8,2,7.2,-17,9580,-8,6
O=c1c(OC2OC(CO)C(O)C(O)C2OC2OC(CO)C(O)C(O)C2O)c(-c2ccc(O)cc2)oc2cc(O)cc(O)c12 (configuration not stated),.,.,0.4,-11,4207,.,5
CCC(=O)c1ccc(OCC(=O)OCC(=O)N(C)CC(=O)Nc2ccc(F)cc2)cc1,2,-3,3.1,-20,4462,-3,7
CCCN(c1ccc(OCC)cc1)S(=O)(=O)c1ccc2c(c1)CCN2C(=O)CCC(=O)O,7,6,12,-12,9170,-13,13
Cc1ccc(CC(=O)Nc2cccc(S(=O)(=O)N3CCOCC3)c2)cc1,1,10,1.6,-10,?,1,5
CCOC(=O)c1c(-c2ccc(C)cc2)csc1N=C(C)C1=C(O)c2ccccc2C1=O,6,1,6.0,.,.,.,6
O=C(NCCc1ccc(Cl)cc1)c1cnccn1,.,.,4.7,-51,4749,3,4
O=C(NCC1CCCO1)C1CCN(C(=O)c2ccc(Cl)cc2)CC1 (configuration not stated),8,8,3.4,-12,9001,-2,-8

Given with values under each structure: entries from further up.
The line under a structure holds: Mtb hypoxia inh, Mtb hypoxia inh growth, Sa RN4220 lethal, PrP UTR inh, Bead autofluor, BJeLR viability, ugtP null kill
> Cc1ccc2[nH]c3c(=O)n(CC(=O)NCCCN4CCN(c5ccc(F)cc5)CC4)ncc3c2c1
    -1, -1, 5.3, -1, 4298, 9, -1
> COc1cccc(NC(=O)CCS(=O)(=O)c2ccc3c(c2)oc(=O)n3C)c1
    5, -6, 4.5, -19, 4388, 1, 10
> N=C1/C(=C\c2ccc(-c3ccc(C(=O)O)cc3)o2)C(=O)N=C2SC=C(c3ccccc3)N12
    3, 7, -4.5, -20, 3549, -1, 8
> Cc1cccc(C)c1OCC(=O)Nc1ccccc1N1CCCCC1
    4, -2, -5.6, -13, 5213, -13, 6

Next section
mol,Mtb hypoxia inh,Mtb hypoxia inh growth,Sa RN4220 lethal,PrP UTR inh,Bead autofluor,BJeLR viability,ugtP null kill
NS(=O)(=O)c1ccc(CNS(=O)(=O)c2cc(C(=O)O)ccc2Cl)cc1,3,15,1.1,-2,2873,0,4
COc1cccc(N2CCN(C(=O)c3ccc(CSc4nc5ccncc5[nH]4)cc3)CC2)c1,.,.,-3.8,3,5933,3,-1
CCCCOC(=O)c1ccc(NC(=S)NC(=O)c2c(Cl)cnn2C)cc1,.,.,-0.2,-17,4794,-3,5
CC(C)(C)n1cnc(C(N)=O)c1N,8,-2,4.5,3,2388,-8,4
CN=C(C)c1c(O)c2ccccc2oc1=O,17,8,2.8,-29,9485,3,-1
COc1cc2oc(=O)ccc2cc1[C@H](O)[C@@H](O)C(C)(C)O,5,-4,-8.1,-13,3986,.,-1
COC(=O)c1cc2ccc(OC)c(OC)c2c(=O)s1,9,8,12,-8,2387,11,-3

Entries of single compounds as entered above. Order of screens: Mtb hypoxia inh, Mtb hypoxia inh growth, Sa RN4220 lethal, PrP UTR inh, Bead autofluor, BJeLR viability, ugtP null kill
`NS(=O)(=O)c1ccc(CNS(=O)(=O)c2cc(C(=O)O)ccc2Cl)cc1` across the screens: 3, 15, 1.1, -2, 2873, 0, 4
`CN=C(C)c1c(O)c2ccccc2oc1=O` across the screens: 17, 8, 2.8, -29, 9485, 3, -1
`COC(=O)c1cc2ccc(OC)c(OC)c2c(=O)s1` across the screens: 9, 8, 12, -8, 2387, 11, -3
`CC(C)(C)n1cnc(C(N)=O)c1N` across the screens: 8, -2, 4.5, 3, 2388, -8, 4

Assay outcomes deposited in PubChem by several laboratories.

Random draw from the library. Share with any hit: about 4%.
